Assay outcomes deposited in PubChem BioAssay by Broad Institute.
Vaccinia inh = blocks a specific stage of Vaccinia orthopoxvirus infection; Vaccinia-infected cells, mCherry/Venus stage reporter fluorescence; stronger effect = lower value; some inactives read as strong as hits; activity change (mCherry), % (test concentration not listed); actives 0.01% (n = 89,000); AID 1053133;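 active means mCherry past -33% and 40 or more points under the early reporter, replicates agreeing; inconclusive means past -33% without that gap or agreement; tested in A549 cells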;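 further: scaled between vehicle wells and reference inhibitor wells; 23 nL library stock went into each well; one replicate is shown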
Vaccinia inh Venus = also measured in Vaccinia inh; calls as there; activity change (Venus), %; measured here: Venus reporter, other viral stage;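 negative = less Venus signal; first of two replicates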
The depositor's hits bear a star; ? = inconclusive; . = no result given; & = joins results of further samples. Only part of the results is shown; the hit share may differ from the screen's.

SMILES	Vaccinia inh	Vaccinia inh Venus
C[C@@H]1CN([C@H](C)CO)S(=O)(=O)c2ccc(C#CCN(C)C)cc2O[C@@H]1CN(C)C	5	1
CN1C(=O)c2cc(NC(=O)C3CC3)ccc2OC[C@H]2O[C@@H](CC(=O)Nc3ccccc3F)CC[C@@H]21	15	17
COc1cccc(-c2cn(CC[C@H]3CC[C@H](NC(=O)CN(C)C)[C@@H](CO)O3)nn2)c1	6	8
C[C@H](CO)N1C[C@H](C)[C@H](CN(C)S(=O)(=O)c2ccc(F)cc2)Oc2c(NC(=O)Nc3ccc(C(F)(F)F)cc3)cccc2C1=O	-10	7
CN1CCN(C(=O)C[C@@H]2C[C@@H]3c4cc(NS(C)(=O)=O)ccc4O[C@@H]3[C@H](CO)O2)CC1	10	4
C[C@@H]1CN([C@@H](C)CO)C(=O)c2cc(-c3cccc(F)c3)cnc2O[C@@H]1CN(C)C(=O)c1ccccn1	-7	-9
CCS(=O)(=O)N1CC2(C1)[C@H](c1ccccc1)[C@@H](CO)N2C(=O)C1CCC1	14	9
CO[C@@H](CN(C)Cc1cc(F)ccc1F)[C@@H](C)CN([C@@H](C)CO)S(=O)(=O)c1ccc(C)cc1	-15	-2
O=C(C[C@@H]1C[C@@H]2c3cc(NC(=O)CC4CC4)ccc3O[C@@H]2[C@H](CO)O1)NCc1ccc2c(c1)OCO2	-6	-13
Cn1cnc(S(=O)(=O)N[C@@H]2C=C[C@H](CC(=O)NCC3CC3)O[C@@H]2CO)c1	7	1
Cn1cnc(CCNC(=O)C[C@H]2CC[C@H]3[C@@H](COC[C@H](O)CN3C(=O)C3CCCC3)O2)c1	-1	0
C[C@@H]1CN([C@@H](C)CO)C(=O)c2cccc(NC(=O)Nc3ccc(F)cc3)c2O[C@@H]1CN(C)C(=O)Nc1ccccc1	-2	0
COc1ccc(NC(=O)N(C)C[C@H]2Oc3ccc(NC(=O)Nc4ccccc4)cc3C(=O)N([C@H](C)CO)C[C@@H]2C)cc1	4	10
O=C(C1CCOCC1)N1C[C@@H]2[C@H](c3ccccc31)[C@H](CO)N2Cc1ccccc1F	22	14
N#C[C@@H]1[C@H](c2ccccc2)[C@H](CO)N1C(=O)C1CCCC1	3	-1
COc1ccc(NC(=O)N(C)C[C@@H]2Oc3ccc(NC(=O)CCCCCC(=O)Nc4ccccc4N)cc3C(=O)N([C@H](C)CO)C[C@@H]2C)cc1	10	6
COc1ccc(NC(=O)N(C)C[C@H]2OCCCC[C@H](C)Oc3ccc(NC(=O)Nc4ccc(C(F)(F)F)cc4)cc3C(=O)N([C@H](C)CO)C[C@@H]2C)cc1	-9	5
CN(C)CC(=O)N1[C@H](CO)[C@H](c2ccccc2)C12CN(C(=O)C1CCCC1)C2	6	9
C[C@H](CO)N1C[C@H](C)[C@H](CN(C)S(=O)(=O)c2ccc(F)cc2)Oc2ncc(Br)cc2C1=O	6&10	5&12
C[C@H]1CN([C@@H](C)CO)S(=O)(=O)c2ccc(C#CC(C)(C)O)cc2O[C@H]1CN(C)C(=O)C1CCC1	14	7
Cc1ccc(S(=O)(=O)N[C@@H]2C=C[C@@H](CC(=O)NCCCN(C)C)O[C@H]2CO)cc1	10	8
O=C(C1CCCCC1)N1CC(=O)N2[C@H](CO)[C@@H](c3ccc(-c4ccccc4F)cc3)[C@H]2C1	?	.
COc1ccc(NC(=O)N(C)C[C@@H]2Oc3c(cccc3N(C)C)C(=O)N([C@H](C)CO)C[C@@H]2C)cc1	5	-3
C[C@H](CO)N1C[C@H](C)[C@H](CN(C)Cc2ccncc2)Oc2cc(C#CC3CC3)ccc2S1(=O)=O	-35	-30
C[C@H](CO)N1C[C@H](C)[C@H](CN(C)C(=O)c2ccccc2)OCCCC[C@H](C)Oc2ccc(NC(=O)Nc3ccc4c(c3)OCO4)cc2C1=O	10	3
C[C@H]1CN([C@@H](C)CO)C(=O)c2cc(Br)cnc2O[C@@H]1CN(C)S(=O)(=O)c1ccc(F)cc1	-5	-10
C[C@@H]1CN([C@H](C)CO)C(=O)c2cc(NC(=O)C3CC3)ccc2O[C@H]1CN(C)Cc1ccc(C(=O)O)cc1	5	-4
Cc1noc(C)c1NC(=O)N(C)C[C@H]1OCc2cnnn2CCCC(=O)N([C@H](C)CO)C[C@@H]1C	7&0	6&1
CCC(=O)Nc1ccc2c(c1)C(=O)N(C)[C@H]1CC[C@@H](CC(=O)N[C@@H](C)c3ccccc3)O[C@H]1CO2	13	10
CCNC(=O)C[C@H]1C=C[C@H](NC(=O)C2CC2)[C@@H](CO)O1	-2	-1
Cc1ccccc1CN(C)C[C@H]1OCc2cn(nn2)CCCC(=O)N([C@H](C)CO)C[C@H]1C	-3	4
O=C(C[C@@H]1CC[C@H]2[C@@H](COC[C@@H](O)CN2C(=O)c2ccc(F)cc2)O1)Nc1nccs1	11	5
C[C@H](CO)N1C[C@H](C)[C@@H](CN(C)Cc2ccc(C(=O)O)cc2)Oc2ccc(NS(C)(=O)=O)cc2CC1=O	8	11
COc1ccccc1-c1cn(CC[C@@H]2CC[C@H](NC(=O)C3CCCCC3)[C@H](CO)O2)nn1	2	0
C[C@H]1CN([C@@H](C)CO)C(=O)c2cc(NS(C)(=O)=O)ccc2O[C@H]1CN(C)S(C)(=O)=O	-1	-2
C[C@@H]1CN([C@@H](C)CO)C(=O)c2ccccc2-c2ccccc2CO[C@@H]1CN(C)Cc1ccccc1C(F)(F)F	-29	-24
Cc1ccc(S(=O)(=O)N(C)C[C@H]2Oc3ccc(NC(=O)Cc4cn(C)c5ccccc45)cc3CC(=O)N([C@@H](C)CO)C[C@H]2C)cc1	-6	-4
C[C@H](NC(=O)C[C@H]1C=C[C@@H](NC(=O)C2CCC2)[C@@H](CO)O1)c1ccccc1	-3	5
C[C@@H]1CCCCO[C@H](CN(C)S(=O)(=O)c2cn(C)cn2)[C@@H](C)CN([C@@H](C)CO)C(=O)c2cc(N(C)C)ccc2O1	27	22
C[C@H](CO)N1C[C@H](C)[C@@H](CN(C)Cc2ccccc2)Oc2ccc(NC(=O)CCCCCC(=O)Nc3ccccc3N)cc2CC1=O	-6	-6
COc1ccc(S(=O)(=O)N(C)C[C@H]2Oc3ccc(NS(=O)(=O)c4ccc(Cl)cc4)cc3C(=O)N([C@H](C)CO)C[C@@H]2C)cc1	-4	-15
O=C(C[C@@H]1C[C@H]2c3cc(NC(=O)NC4CCCCC4)ccc3O[C@H]2[C@@H](CO)O1)NCC1CC1	-3	8
Cc1noc(C)c1S(=O)(=O)Nc1ccc2c(c1)C(=O)N([C@H](C)CO)C[C@H](C)[C@@H](CN(C)C(=O)c1ccccc1)OCCCC[C@@H](C)O2	43	20
C[C@H]1CN([C@@H](C)CO)C(=O)c2cc(NC(=O)Nc3ccccc3)ccc2O[C@H]1CN(C)S(=O)(=O)c1cn(C)cn1	17	13
CCCN1[C@@H]2c3cccc(=O)n3C[C@H]1[C@H](CO)[C@H]2C(=O)N[C@H](C)c1ccccc1	6	0
CO[C@H]1CN(C)C(=O)c2cc(NC(=O)Nc3ccccc3)ccc2OC[C@@H](C)N(CC2CC2)C[C@H]1C	-4	-3
C[C@H](CO)N1C[C@H](C)[C@H](CN(C)S(=O)(=O)c2ccccc2)Oc2ccc(NS(C)(=O)=O)cc2CC1=O	30	14
CC(C)NC(=O)Nc1ccc2c(c1)C(=O)N([C@@H](C)CO)C[C@H](C)[C@H](CN(C)S(=O)(=O)c1ccc(Cl)cc1)O2	-1	0
O=C(C[C@@H]1CC[C@H]2[C@@H](COC[C@@H](O)CN2Cc2nccs2)O1)N1CCC(Cc2ccccc2)CC1	-10	-5
C[C@H]1CN([C@@H](C)CO)S(=O)(=O)c2ccc(-c3cncnc3)cc2O[C@H]1CN(C)Cc1cncnc1	16	14
O=C(Nc1ccc(Cl)cc1)N1C[C@@H]2[C@H](c3ccccc31)[C@H](CO)N2C(=O)C1CC1	3	4
O=C(Nc1ccccc1)N1C[C@@H]2[C@H](c3ccccc31)[C@@H](CO)N2Cc1ccccc1	-13	-6
O=C(Nc1ccc(F)cc1)N1C[C@H]2[C@@H](c3ccccc31)[C@@H](CO)N2C(=O)Cc1ccccc1	-5	1
O=C(Nc1ccccc1F)N1CCCCN2[C@H](CO)[C@H](c3ccc(-c4cccnc4)cc3)[C@H]2C1	-5	-7
C/C=C/c1ccc([C@H]2[C@@H](CO)N3C(=O)CN(Cc4ccc(F)cc4)C[C@H]23)cc1	?	.
CC(C)C#Cc1ccc([C@H]2[C@@H](CO)N3C(=O)CN(C(=O)NC4CCCC4)C[C@@H]23)cc1	2	12
C[C@@H]1CN([C@H](C)CO)C(=O)Cc2cc(NS(C)(=O)=O)ccc2O[C@H]1CN(C)C(=O)Nc1ccc(F)cc1	23	12
CC(C)NC(=O)N(C)C[C@@H]1Oc2c(NC(=O)c3nc4ccccc4s3)cccc2C(=O)N([C@@H](C)CO)C[C@@H]1C	15	5
CO[C@H]1CN(C)C(=O)c2cc(NS(C)(=O)=O)ccc2OC[C@@H](C)N(C)C[C@@H]1C	13	17
O=C(C[C@@H]1C[C@H]2c3cc(NC(=O)Nc4ccccc4F)ccc3O[C@H]2[C@H](CO)O1)NCCc1ccccc1	2	9

Remaining list, next part:
SMILES	Vaccinia inh	Vaccinia inh Venus
CN(C)CC#Cc1ccc([C@H]2[C@H](CO)N3C(=O)CN(C(=O)c4cccc(F)c4)C[C@@H]23)cc1	3	-4
CCCC(=O)Nc1ccc2c(c1)C(=O)N(C)[C@@H]1CC[C@@H](CC(=O)NC3CCCC3)O[C@@H]1CO2	15	13
C[C@@H]1CN([C@H](C)CO)C(=O)c2cc(NC(=O)Nc3ccccc3)ccc2O[C@@H](C)CCCCO[C@H]1CN(C)S(=O)(=O)c1cccs1	-7	0
COc1ccc(NC(=O)Nc2cccc3c2O[C@H](CN(C)Cc2ccncc2)[C@H](C)CN([C@H](C)CO)C3=O)cc1	3	-6
COc1ccc(S(=O)(=O)N(C)C[C@@H]2Oc3ccc(NC(=O)C4CC4)cc3C(=O)N([C@@H](C)CO)C[C@H]2C)cc1	15	13
CO[C@@H](C(=O)N(C)C[C@@H]1OCc2ccccc2-c2c(n(C)c3ccccc23)C(=O)N([C@@H](C)CO)C[C@@H]1C)c1ccccc1	-35	-24
C[C@@H]1CN([C@H](C)CO)S(=O)(=O)c2ccc(C3=CCCC3)cc2O[C@@H]1CN(C)Cc1ccccc1F	-8	-13
CCCNC(=O)N1CC2(C1)[C@H](c1ccccc1)[C@@H](CO)N2C(=O)CC1CC1	0	-5
CCC(=O)N(C)C[C@H]1Oc2ncc(C3=CCCC3)cc2C(=O)N([C@@H](C)CO)C[C@H]1C	25	12
COc1ccc2c3c([nH]c2c1)[C@H](CO)N(C)CC31CN(C(=O)NC(C)C)C1	6	4
C[C@H](CO)N1C[C@H](C)[C@H](CN(C)C(=O)Cc2cccnc2)Oc2ncc(-c3cccnc3)cc2C1=O	15	0
CCCN1[C@@H]2c3ccc(-c4cccc(F)c4)c(=O)n3C[C@H]1[C@H](CO)[C@H]2C(=O)NCC1CC1	2	6
C[C@H]1CN([C@@H](C)CO)C(=O)Cc2cc(NC(=O)Nc3ccc(F)cc3)ccc2O[C@H]1CN(C)C(=O)Nc1ccc2c(c1)OCO2	11	18
C[C@H]1CN([C@@H](C)CO)C(=O)CCCn2nncc2CO[C@@H]1CN(C)Cc1ccc(C(=O)Nc2ccccc2N)cc1	7	1
CCC(=O)N(C)C[C@H]1Oc2ncc(-c3ccccc3C)cc2C(=O)N([C@H](C)CO)C[C@H]1C	2	-9
C[C@H]1CN([C@@H](C)CO)S(=O)(=O)c2ccc(-c3cncnc3)cc2O[C@H]1CN(C)C(=O)Cc1cccnc1	18	3
Cc1noc(C)c1S(=O)(=O)N(C)C[C@@H]1Oc2ccc(N(C)C)cc2CC(=O)N([C@@H](C)CO)C[C@H]1C	3	6

3 of the compounds above, as labelled records.
SMILES: CC(C)C#Cc1ccc([C@H]2[C@@H](CO)N3C(=O)CN(C(=O)NC4CCCC4)C[C@@H]23)cc1
  Vaccinia inh = 2
  Vaccinia inh Venus = 12

SMILES: CCCNC(=O)N1CC2(C1)[C@H](c1ccccc1)[C@@H](CO)N2C(=O)CC1CC1
  Vaccinia inh = 0
  Vaccinia inh Venus = -5

SMILES: Cc1noc(C)c1S(=O)(=O)N(C)C[C@@H]1Oc2ccc(N(C)C)cc2CC(=O)N([C@@H](C)CO)C[C@H]1C
  Vaccinia inh = 3
  Vaccinia inh Venus = 6

Random excerpt: two compounds from above, in no set order.
SMILES	Vaccinia inh	Vaccinia inh Venus
CN(C)CC#Cc1ccc([C@H]2[C@H](CO)N3C(=O)CN(C(=O)c4cccc(F)c4)C[C@@H]23)cc1	3	-4
C[C@H]1CN([C@@H](C)CO)C(=O)c2cc(NC(=O)Nc3ccccc3)ccc2O[C@H]1CN(C)S(=O)(=O)c1cn(C)cn1	17	13
